Screening data from PubChem BioAssay.
StopGo reporter: lowers the luciferase signal of an FMDV 2A StopGo reporter. 1.2% of 410,000 active. Potency, µM (series often up to 57.9 µM), without a hit: at the top dose signal change, negative = less light. human cells with a luciferase reporter of 2A StopGo recoding; control for the full effect not named in the record; active = well fitted falling curve with a large enough effect; inconclusive = small, poorly fitted or top-dose-only effect; inactive = no such curve, though single readings can be large or run the other way; tested in HEK293T cells; note: % is set by controls: 0 for no effect and ±100 for the full control effect; nearly all actives have a fitted effect of over 45% in size; luciferase light after 4 h
Cruzain Triton: inhibitors of Trypanosoma cruzi cruzain with detergent; P25779; purified cruzain, Z-FR-AMC fluorescence, 0.01% Triton; Potency, µM, inactives show max response, negative = inhibition, most hits filed as inhibitors; 0.43% of 200,000 active; AID 1478;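 note: plate controls were neutral wells for no effect and buffer without enzyme for full effect; nearly all actives have a fitted effect of over 40% in size; top concentration of the series not given in the record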
Target sequence (P25779 123-467 limits assumed): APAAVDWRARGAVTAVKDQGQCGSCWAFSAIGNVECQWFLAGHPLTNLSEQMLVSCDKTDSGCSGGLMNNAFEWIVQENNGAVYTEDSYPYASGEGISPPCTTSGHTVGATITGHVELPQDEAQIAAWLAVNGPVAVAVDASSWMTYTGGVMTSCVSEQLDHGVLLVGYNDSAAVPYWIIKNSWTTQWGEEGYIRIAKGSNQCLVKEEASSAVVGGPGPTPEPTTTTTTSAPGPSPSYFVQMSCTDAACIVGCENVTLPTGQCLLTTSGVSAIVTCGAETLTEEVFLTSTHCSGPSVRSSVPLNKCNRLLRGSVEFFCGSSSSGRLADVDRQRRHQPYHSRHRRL
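Steps: dispense cruzain (1.5 nM final) in acetate buffer pH 5.5 with DTT and 0.01% Triton X-100; pin-transfer compounds; incubate 15 min RT; add Z-FR-AMC (2 uM final); read fluorescence every 30 s, using the 60 s intensity change.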
LASV entry inh: Lassa virus entry inhibition | Lassa virus pseudotype entry inhibition, cell reporter; control for the full effect not named in the record | Potency, µM (highest dose often 37.9 µM), inactives show at the highest dose activity change, negative = inhibition, most hits filed as inhibitors | 1.2% of 300,000 active; active means well fitted inhibition curve with a large enough effect; inconclusive means small, poorly fitted or top-dose-only effect, or effect the other way; inactive means flat fitted curve, though single readings scatter; tested in HEK293 cells; note: % is set by controls: 0 for no effect and ±100 for the full control effect; nearly all actives have a fitted effect of over 50% in size; luciferase read-out
Cruzain noTriton: inhibitors of Trypanosoma cruzi cruzain without detergent | P25779 | Potency, µM, for inactives: max response, negative = inhibition, most hits filed as inhibitors | AID 1476 | purified cruzain, Z-FR-AMC fluorescence, no detergent | 2.3% of 200,000 active;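 note: plate controls were enzyme without inhibitor for no effect and buffer without enzyme for full effect; nearly all actives have a fitted effect of over 40% in size; top concentration of the series not given in the record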
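Purified cruzain at 1.5 nM, pre-incubated 15 min with compound at room temperature in 100 mM sodium acetate pH 5.5, 5 mM DTT, 0.00005% Triton X-100. Reaction started with 2 uM Z-FR-AMC; AMC fluorescence increase over 60 s gives rate.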
Marburg entry inh: blocks Marburg virus binding to or entry into cells; Marburg virus pseudotyped entry inhibition, cell reporter; control for the full effect not named in the record; about a third of the inactives were read at about 46 µM; Potency, µM (doses to about 37.8 µM), for the others: top-dose activity change, negative = inhibition, usual class: inhibitors; AID 540276; 1.8% of 300,000 active; active = well fitted inhibition curve with a large enough effect; inconclusive = small, poorly fitted or top-dose-only effect, or effect the other way; inactive = flat fitted curve, though single readings scatter; tested in HEK293 cells; about a fifth of its hits are not listed in these tables; note: % is set by controls: 0 for no effect and ±100 for the full control effect; luciferase read-out
NS1 function inh: influenza NS1 inhibition; S. cerevisiae slowed by influenza A NS1, growth recovery by OD600; Potency, µM (top dose mostly 46.1 µM), inactives show at the top dose activity, positive = more growth; 0.4% of 270,000 active; AID 2326; active means well fitted rising curve with a large enough effect; inconclusive means small, poorly fitted or top-dose-only effect; inactive means no such curve, though single readings can be large or run the other way; note: nearly all actives have a fitted effect of over 50% in size
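A cell-based growth assay was used: compounds that relieve NS1-induced slow growth of budding yeast raise OD600. Assay medium was yeast nitrogen base with ammonium sulphate and -URA supplement, pH 6.0, with 2% galactose.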
RE007 growth inh: less growth of the S. pombe RE007 Vpr strain; S. pombe RE007 Vpr strain, BacTiter-Glo ATP luminescence, 24 h; control for the full effect not named in the record; Potency, µM (series often up to 92.2 µM), for the others: at the highest dose activity change, negative = less growth; 0.21% of 360,000 active; AID 651644; active = well fitted falling curve with a large enough effect; inconclusive = small, poorly fitted or top-dose-only effect; inactive = no such curve, though single readings can be large or run the other way;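 note: % is set by controls: 0 for no effect and ±100 for the full control effect; nearly all actives have a fitted effect of over 50% in size; the assay follows cell death caused by Vpr and the record does not say whether a fall means rescue or toxicity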
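Fission yeast RE007 carrying one integrated HIV-1 vpr copy, seeded at OD 0.01 in PMG+AL medium with 23 nL pinned compound. Grown 24 h at 30 degrees; viability read by BacTiter-Glo luminescence after 5 min.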
SARS PLpro yeast: blocks SARS-CoV papain-like protease in a yeast assay. S. cerevisiae expressing SARS-CoV PLpro, growth rescue; control for the full effect not named in the record. 0.19% of 330,000 active. AID 485353. Potency, µM (titrated, usually from 32.9 µM), for the others: at the highest dose activity, positive = growth rescue; active means well fitted rising curve with a large enough effect; inconclusive means small, poorly fitted or top-dose-only effect; inactive means no such curve, though single readings can be large or run the other way; note: 0% is about no effect; nearly all actives have a fitted effect of over 55% in size; growth read by luminescence after 48 h
* marks the source's active call; other numbers are inactive results; ? = inconclusive; . = no result given; [ ] = another dose, or the depositor's remark. Unless noted, calls come from the whole dose curve; as a rule, active = well fitted curve in the direction sought with a large enough effect; inconclusive = small, poorly fitted or top-dose-only effect, or another doubt; inactive = no such curve, though single readings can be large; an effect the other way counts as inactive or inconclusive. Potency is the fitted concentration of half-maximal effect.

SMILES	StopGo reporter	Cruzain Triton	LASV entry inh	Cruzain noTriton	Marburg entry inh	NS1 function inh	RE007 growth inh	SARS PLpro yeast
Cc1cc(C2C(=O)NC(=O)C2=O)c(C)cc1Br (stereo not drawn)	-12%	.	-4%[46.1 µM]	.	10%[46.1 µM]	.	5%	.
COc1ccc(CCNC(=O)c2cnccn2)cc1	-8%	0.3%	.	-4%	.	5%	5%	-4%
Cc1ccc(-c2cc3c(nn2)-c2ccccc2C3=O)cc1	10µM*	.	.	.	.	-10%	-18%	-4%
O=C(O)CP(=O)(c1ccccc1)c1ccccc1	0%	0.3%	8%	-7%	0%	1%	18%	-1%
Cc1ccc(NC2(C(F)(F)F)N=C(c3ccccc3)NC2=O)nc1 (stereo not drawn)	-2%	-0.2%	1%	-12%	23%	-16%	5%	-10%
Cc1ccc(C(=O)c2c3ccccc3[n+]([O-])n2CCC(N)=O)cc1	2%	.	.	.	.	7%	10%	-8%
CCCC(=O)Nc1ccc(C(=O)COC(=O)C2=COCCO2)cc1	16%	.	23%	.	5%	.	-4%	-3%
Cc1nc(C(=O)NCc2ccccc2)sc1C1(C)CC(c2cccnc2)=NO1 (stereo not drawn)	0%	.	.	.	.	-5%	5%	0%
Cc1ccc(NS(=O)(=O)c2ccc(C(=O)N3CCCCCCC3)cc2)cc1	-8%	.	?	.	-23%[46.1 µM]	-3%	3%	-3%
Cc1ccsc1C1C2=C(CCCC2=O)Nc2ncnn21 (stereo not drawn)	-1%	-1.3%	0%	5%	-8%	-1%	-4%	1%
Cc1c(N)cc[n+](CC(=O)c2ccccc2)c1C	-12%	.	-18%	.	-30%[46.1 µM]	0%	-25%	-1%
CCC(C)C(NC(=O)c1ccccc1NC(=O)c1ccccc1)C(=O)O (stereo not drawn)	11%	.	.	.	.	2%	1%	1%
N#Cc1ccc(S(=O)(=O)Nc2ccc3ccccc3n2)cc1	112%[activator]	.	.	.	.	-1%	-12%	0%
COc1ccc(C(=O)Nc2ccc3c4c(cccc24)CC3)cc1	40%[activator]	-3.5%	?	-8%	-1%	1%	-18%	3%
Cc1onc(-c2ccccc2)c1CNC(=O)Nc1ccc(C(F)(F)F)cc1	?	.	?	.	?	1%	-5%	-2%
NC(=O)C1=C[C@@H](c2ccc(C(F)(F)F)cc2)C[C@@H](OCCCCO)O1	-13%	.	.	.	.	1%	-2%	-3%
CC(C)Cc1ccc(C#N)c(SCC(N)=O)n1	.	-1.7%	?	4%	23%	1%	6%	-6%
COc1cc(NC(C)CCc2ccccc2)cc(OC)c1OC (stereo not drawn)	?	.	1%	.	5%	?	-6%	3%
CCOC(=O)N1CCN(CCC(=O)Nc2cccc(Cl)c2C)CC1	-4%	.	.	.	.	8%	-11%	4%
COc1ccc(C2c3ccc(O)cc3Oc3ncn(Cc4ccco4)c(=N)c32)cc1 (stereo not drawn)	?	.	.	.	.	10%	2%	1%
COc1ccc2c(c1)c(=O)cc(C)n2CC(=O)NCc1ccco1	?	-4.4%	?	-4%	?	3%	-7%	-1%
O=C(Nc1ccnn1C1CCN(Cc2ccc(C#CCCO)cc2)CC1)c1cccc(F)c1	-17%	.	-6%[46.1 µM]	.	0%[46.1 µM]	-4%	6%	1%
Cc1ccc(NC(=O)C(=O)NCCN2CCN(S(C)(=O)=O)CC2)cc1	6%	.	1%[46.1 µM]	.	0%[46.1 µM]	7%	11%	-1%
O=C(NCCc1cccs1)C1CC(c2cccc([N+](=O)[O-])c2)=NO1 (stereo not drawn)	2%	2.8%	.	12%	.	-48%	1%	3%
O=C(CCC1CCCC1)N1CCN(S(=O)(=O)c2ccc(Br)cc2)CC1	-21%	.	4%	.	-21%	.	2%	-3%
COc1ccc(Cl)cc1NC(=O)CCNS(=O)(=O)c1cccc2nonc12	-4%	.	-9%[46.1 µM]	.	-4%[46.1 µM]	8%	-16%	2%
N#C/C(=C\c1ccc(OCCN2CCOCC2)cc1)C(=O)Nc1ccc(S(N)(=O)=O)cc1	-15%	.	.	.	.	0%	-14%	0%
Cc1cc(/C=N/NC(=O)C(O)(c2ccccc2)c2ccccc2)c(C)n1-c1ccccc1	-8%	-8.7%	.	-19%	-3%	?	-4%	5%
CCOC(=O)c1c(N)sc2c1CCC(C)C2 (stereo not drawn)	14%	-13%	2%	-10%	-12%	7%	-9%	2%
Cc1cc(NC(=O)c2cccn(Cc3cccc(Cl)c3)c2=O)no1	2%	0.1%	1%[46.1 µM]	-4%	.	.	.	.
CCCS(=O)(=O)Nc1c(C(=O)O)[nH]c2ccccc12	-19%	-9.9%	10%	-5%	19%[46.1 µM]	2%	18%	-5%
Fc1ccc(CSc2ncnc3sc4c(c23)CCCC4)cc1	-4%	-0.3%	-11%	-13%	-18%	3%	3%	-2%
COc1ccc(/C(O)=C2/C(=O)C(=O)N(Cc3cccnc3)C2c2ccco2)cc1OC (stereo not drawn)	36%[activator]	-5.4%	0%	-1%	-3%	-5%	4%	1%
Cc1cc(C(=O)COC(=O)c2ccccc2O)c(C)n1Cc1cccs1	28µM*	4.1%	0.33µM*	-7%	0.82µM*	3%	-26%	-1%
O=C(c1ccc(S(=O)(=O)c2cccc(Cl)c2)c([N+](=O)[O-])c1)N1CCN(c2ccccn2)CC1	16µM*	.	?	.	7.1µM*	.	-16%	-4%
CCn1c(SCC(=O)Nc2nc(-c3ccccc3)cs2)nc2c1c(=O)n(C)c(=O)n2C	-9%	-5.6%	8%	-7%	-11%	2%	5%	-2%
Cc1ccc(CCC(=O)NCc2ccccc2)o1	13%	.	29%[46.1 µM]	.	-4%[46.1 µM]	5µM*	-3%	-3%
O=S(=O)(Cc1ccccc1)NCc1cccnc1	1%	-2.4%	-16%	-5%	15%	-7%	-8%	-7%
COc1ccc(S(=O)(=O)N2CCCC(C(=O)NCc3ccncc3)C2)cc1 (stereo not drawn)	-8%	3.6%	-15%	-4%	18%	-3%	-15%	4%
O=C(CS(=O)(=O)Cc1ccccc1)Nc1nc2ccccc2s1	26%	-4.1%	0%	-14%	2%	-7%	2%	-1%
O=c1[nH]c(O)c(C=Nc2ccc(F)c(Cl)c2)c(=O)[nH]1	-24%	.	.	.	.	2%	7%	1%
O=C(CCN1CCCCC1)NNC(=S)NC(=O)c1ccc(Br)cc1	2%	.	.	.	9%[46.1 µM]	.	13%	1%
OCn1ncn(-c2ccccc2)c1=S	-10%	3.2%	9%	-6%	5%	-7%	-7%	-1%
COc1ccccc1CCNC(=O)c1csc2c1CCCC2	41%[activator]	.	?	.	?	.	-17%	-3%
CCCCCc1cc(=O)oc2c(C(CCN3CCCC(C)C3)c3ccc(N(C)C)cc3)c(OC)cc(OC)c12 (stereo not drawn)	-12%	.	.	.	.	?	3%	-6%
Nc1nnc(CC(=O)N/N=C/c2ccc(-c3ccc(Cl)cc3Cl)o2)s1	-9%	.	.	.	.	7%	3%	-1%
CC(C)OCCCNC(=O)c1cc(-c2cccnc2)nc2ccccc12	-14%	.	.	.	.	-2%	-12%	0%
CCCCn1c(N)c(N(CC(C)C)C(=O)CSCC(=O)Nc2cccc(C)c2)c(=O)[nH]c1=O	-19%	.	0%[46.1 µM]	.	2%	.	-9%	1%
CC(=O)Nc1cccc(C(=O)/C=C/c2cccs2)c1	?	-4.1%	-19%	-3%	-9%	-55%	-7%	-37%
Cc1cccc(C)c1NC(=O)C/C(N)=N/O	3%	6.9%	15%	12%	-3%	7%	9%	-1%
CC(=O)N1C(C(=O)O)Cc2c([nH]c3ccccc23)C1C (stereo not drawn)	6%	.	20%	.	14%	-8%	4%	4%
COc1ccc(/C=C2/C(=O)ON=C2C)cc1Br	-24%	.	?	.	?	0%	29%	-2%
Cc1cccc(C(=O)NNC(=O)CCCCC(=O)NNC(=O)c2cccc(C)c2)c1	6%	.	0%	.	8%	0%	-1%	1%
COc1ccc(Oc2ncnc3c2oc2ccccc23)cc1	18%	-3.0%	-6%[46.1 µM]	-1%	.	.	.	.
COc1cc(N)c(Cl)cc1C(=O)OCC(=O)N1CCCC1	-9%	.	-1%	.	1%[46.1 µM]	-5%	-27%	-2%
CCc1nc(-c2cc3ccc(C)cc3[nH]c2=O)no1	60%[activator]	-2.5%	?	22%	8%	0%	-14%	-5%
CC(=O)N1CCc2cc(S(=O)(=O)NC(CC(C)C)C(=O)Nc3ccc4c(c3)OCCO4)ccc21 (stereo not drawn)	2%	-0.8%	3%	?	9%	0%	-4%	3%
COc1ccc(COC(=O)C2=C(C)NC(=O)NC2c2cccc(OC)c2OC)cc1 (stereo not drawn)	-24%	.	-9%	.	-24%	-18%	1%	3%
CC(=O)N1CCN(C(=O)c2ccc(-n3c(C)ccc3C)cc2)CC1	-11%	0.1%	-12%	5%	?	0%	3%	-38%
CC(C)OP(=O)(OC(C)C)/C(C=O)=N\Nc1ccc([N+](=O)[O-])cc1	-30%	.	.	.	.	-84%	44%	-1%

Continuation.
SMILES	StopGo reporter	Cruzain Triton	LASV entry inh	Cruzain noTriton	Marburg entry inh	NS1 function inh	RE007 growth inh	SARS PLpro yeast
COc1ccc(O)c(C(=O)c2cnn(-c3ccc(Cl)cc3)c2)c1	39%[activator]	.	.	.	-17%[46.1 µM]	-9%	-9%	-5%
CCCCC1CCC(C(=O)OC(C)C(=O)Nc2ccc(NC(C)=O)cc2)CC1 (stereo not drawn)	1%	.	4%[46.1 µM]	.	-7%[46.1 µM]	-17%	-3%	-4%
CC(=O)c1cn(CCOc2ccc(F)cc2)c2ccccc12	?	.	.	.	.	-40%	-1%	-1%
O=C(CN1C(=O)C2CC=CCC2C1=O)Nc1nnc(SCc2c(Cl)cccc2Cl)s1 (stereo not drawn)	3%	1.5%	-6%	16µM*	20%	-4%	2%	-1%
Cc1nc(CN2CCCCC2)c(O)c(=O)[nH]1	-9%	-0.7%	7%	8%	?	-1%	18%	.
CC(C)CN1C(=O)NC(NS(=O)(=O)c2ccc(N)cc2)(C(F)(F)F)C1=O (stereo not drawn)	-10%	-2.9%	5%	-10%	?	19%	3%	-10%

Random draw from the library. Share with any hit: about 4.8%.
